A647 autofl: A647 region autofluorescence; Compound fluorescence, A647 channel (570/671 nm), Tris buffer; max dye-equivalent concentration, M; 59,000 tested, under 10 active; active means above 1 µM dye equivalent; inconclusive means 0.1 to 1 µM; inactive means 0.1 µM or less;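 further: values scaled relative to a standard on each plate; highest value over a series up to 38 µM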
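Compound fluorescence was measured in 100 mM Tris buffer, pH 8.0, after 15 min at room temperature, using 570 nm excitation and 671 nm emission filters. Signal was normalized to a per-plate Alexa 647 standard curve and expressed as dye-equivalent concentration at each compound concentration.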
A488 autofl: A488 region autofluorescence; compound autofluorescence, A488 spectral region, dye equivalency; active compounds read high; max dye equivalency, M; 59,000 compounds, 0.1% hits; active = above 10 nM dye equivalent; inconclusive = 1 to 10 nM; inactive = 1 nM or less; about half of its hits are not listed in these tables;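 further: highest value over a series up to 38 µM; compound alone in buffer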
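Compounds pin-transferred into 100 mM Tris buffer, pH 8.0, incubated 15 min at room temperature, then imaged with 480 nm excitation/540 nm emission filters. Fluorescence converted to Alexa 488 dye-equivalent concentration via an on-plate six-point A488 standard curve.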
Resorufin autofl: compound fluoresces in the resorufin spectral region | Compound fluorescence, resorufin region 547/598 nm, buffer; active compounds read high | max dye-equivalent concentration, M | 59,000 compounds, 0.04% hits; active = above 10 nM dye equivalent; inconclusive = 1 to 10 nM; inactive = 1 nM or less; a few of its hits are not listed in these tables; further: highest value over a series up to 38 µM
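Dye-equivalent concentration values derive from comparing each well's 547/598 nm fluorescence against resorufin standards included on every plate. Incubation was 15 min at room temperature in 100 mM Tris, pH 8.0.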
AID923: qHTS Assay for Allosteric/Competitive Inhibitors of Caspase-1: Spectroscopic Profiling in AFC Spectral Region; Potency, µM (doses to about 57.5 µM), inactives show at the highest dose fluorescence increase, most hits filed as activators; 75,000 compounds, 1.1% hits; compound fluorescence, AFC spectral region (405/520 nm); almost no hit is shown here; active means well fitted activation curve with a large enough effect; inconclusive means small, poorly fitted or top-dose-only effect;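 further: potency means the concentration at half of the fitted maximal effect; 0% is about no effect; scaled to a free AFC standard on each plate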
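Compound autofluorescence profiled at 405 nm ex/520 nm em during kinetic caspase 1 run (50 nM enzyme, 5 uM Ac-WEHD-AFC, HEPES pH 7.5, 10 mM DTT). Titration up to 57 uM; baseline from regression intercept, normalized to AFC standard curve.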
TSHR agonist: activates the human thyroid stimulating hormone receptor; AID 926; P16473; HEK293-CNG-TSHR cells (CNG channel as cAMP sensor), membrane potential dye, cAMP; 73,000 compounds, 0.48% hits; Potency, µM (series often up to 57.1 µM), for inactives: at the highest dose activation, hits mostly activators; active = well fitted activation curve of enough size with the parental cells flat; inconclusive = any curve in the parental cells; inactive = parental cells flat and receptor cells flat or falling; further: potency means the concentration at half of the fitted maximal effect; % of control where 0% means no effect; weak receptor curves with flat parental cells got no call and are not listed
Target sequence (P16473 whole entry, looked up): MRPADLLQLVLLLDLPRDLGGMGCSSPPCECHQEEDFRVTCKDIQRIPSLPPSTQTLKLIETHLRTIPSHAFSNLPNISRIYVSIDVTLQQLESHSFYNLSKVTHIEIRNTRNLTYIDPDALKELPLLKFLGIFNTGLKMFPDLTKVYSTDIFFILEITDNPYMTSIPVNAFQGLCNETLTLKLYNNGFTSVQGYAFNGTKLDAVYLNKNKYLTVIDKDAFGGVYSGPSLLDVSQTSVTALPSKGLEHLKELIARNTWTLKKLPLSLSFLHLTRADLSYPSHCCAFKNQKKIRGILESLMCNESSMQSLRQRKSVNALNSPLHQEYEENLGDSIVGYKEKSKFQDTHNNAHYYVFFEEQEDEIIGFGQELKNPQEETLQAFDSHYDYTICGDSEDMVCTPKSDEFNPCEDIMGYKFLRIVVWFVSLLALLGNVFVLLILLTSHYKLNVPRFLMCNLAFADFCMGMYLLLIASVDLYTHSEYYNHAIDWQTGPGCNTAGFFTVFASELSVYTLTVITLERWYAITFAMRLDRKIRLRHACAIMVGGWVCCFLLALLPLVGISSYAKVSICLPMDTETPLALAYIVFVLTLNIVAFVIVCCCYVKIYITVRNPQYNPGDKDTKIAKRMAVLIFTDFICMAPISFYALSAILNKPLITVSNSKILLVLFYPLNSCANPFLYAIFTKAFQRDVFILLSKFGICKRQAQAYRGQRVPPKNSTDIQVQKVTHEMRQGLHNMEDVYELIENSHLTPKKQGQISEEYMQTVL
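cAMP rise detected as CNG-channel membrane depolarization by fluorescent dye (emission 590 nm), 30 min after compound, following 60 min dye loading containing 100 uM RO 20-1724 at room temperature. Cells: TSHR/CNG HEK 293, with parental CNG HEK 293 as control.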
The depositor's hits bear a star; i = inactive; ? = inconclusive; nt = no result given; & = joins results of further samples; [ ] = dose if it differs, or a comment. Not all compounds are listed. The share of hits here may be higher or lower than overall.

Values in the order: A647 autofl	A488 autofl	Resorufin autofl	AID923	TSHR agonist
(1) CCCCn1c(=O)c(C(=O)NCc2ccncc2)c(O)c2ccccc21
    1e-09	i	i	-0.3%	?
(2) O=c1[nH]c(=O)n(C2CCCCCC2)c(O)c1C=NCC1CCCO1 (stereo not drawn)
    6.1e-09	i	i	-0.3%	-3%
(3) O=[N+]([O-])c1ccc2nc(N3CCNCC3)ccc2c1
    5.2e-08	i	i	-1.6%	-13%
(4) CCOC(=O)CC(SP(=O)(OC)OC)C(=O)OCC (stereo not drawn)
    nt	nt	nt	-1.0%	?
(5) CN1C(=O)N(C)C(=O)C2(Cc3c(nc4ccccn4c3=O)N3CCC(Cc4ccccc4)CC32)C1=O (stereo not drawn)
    1e-09	i	i	0.0%	nt
(6) CC[N@+]1(C)CCC[C@@H](OC(=O)C(O)(c2ccccc2)c2ccccc2)C1
    5e-08	i	i	-2.8%[25.7 µM]	-10%[25.6 µM]
(7) CCNC(C)(C)[C@@H](SS)c1ccc(Br)cc1
    1e-09	i	i	1.2%[11.5 µM]	-1%[11.4 µM]
(8) CCC(C)(C)n1nnnc1C(c1cccs1)N1CC=C(c2ccc(F)cc2)CC1 (stereo not drawn)
    2.8e-08	i	i	1.6%	?
(9) CCCc1[nH]nc2c1C(c1cc(OC)cc(OC)c1)C(C#N)=C(N)O2 (stereo not drawn)
    1e-09	i	i	-1.8%	?
(10) c1cc(CCN2CCCCC2)ccn1
    2.9e-08	i	i	-4.3%[11.5 µM]	-5%[11.4 µM]
(11) O=C1NC(=O)C(C/C=C/c2ccccc2)C(=O)N1
    4.4e-08	i	i	nt	nt
(12) CCN[C@]1(c2cccs2)CCCCC1=O
    1e-09	i	i	-0.9%[25.7 µM]	5µM*
(13) CCn1c(O)c(C(=O)CC2NCCc3ccccc32)c(=O)n(CC)c1=S (stereo not drawn)
    4.8e-09	i	i	nt	nt
(14) Cc1ccc2c(c1)C1CN(C)CCC1N2C(=O)Cc1cccs1 (stereo not drawn)
    1e-09	i	i	3.3%	-2%
(15) Oc1ccc(Cl)cc1
    nt	nt	nt	-0.7%	2%
(16) CN(C(=O)Cc1ccc(Cl)c(Cl)c1)[C@@H](CN1CCCC1)c1cccc(OCC(=O)O)c1
    6.4e-09	i	i	-0.9%&-2.9%	-3%
(17) O=c1[nH]c(=O)n(-c2cccc(Cl)c2)c(O)c1/C=N/c1ccccn1
    2.1e-08	i	i	-1.4%	-5%
(18) COc1cccc(-c2cc(C(F)(F)F)n3nc(C(=O)N4CCC5(CC4)OCCO5)cc3n2)c1
    1e-09	i	i	0.6%	7%
(19) C=C1C/C(=C\C)C(=O)O[C@@H]2CCN3CC=C(COC(=O)[C@@]1(C)O)[C@H]23
    3.3e-08	i	i	-0.9%[25.7 µM]	-6%[25.6 µM]
(20) C[C@H]1CC[C@]2(NC1)O[C@@H]1C[C@@H]3[C@@H]4CC=C5C[C@H](O)CC[C@@]5(C)[C@H]4CC[C@@]3(C)[C@H]1[C@@H]2C
    1e-09	i	i	nt	2%
(21) CC(=NCc1cccnc1)c1c(O)n(-c2ccc(C)cc2)c(=O)[nH]c1=O
    1e-09	i	i	0.6%	2%
(22) CC(C)(c1ccc(OCC2CO2)cc1)c1ccc(OCC2CO2)cc1 (stereo not drawn)
    nt	nt	nt	-1.1%	?
(23) CN1[C@H]2CC(OC(=O)[C@H](CO)c3ccccc3)C[C@H]1[C@H]1O[C@H]12 (stereo partly drawn)
    nt	nt	nt	1.1%&-1.2%	1%&-4%
(24) O=c1cccc2n1CC1CC2CN(c2ncnc3c2cnn3-c2ccccc2)C1 (stereo not drawn)
    1e-09	i	i	-0.5%	-7%
(25) CC1(C)C2CC=C(CN3CCOCC3)C1C2 (stereo not drawn)
    2.5e-08	i	i	-0.3%	-5%
(26) CCOC(=O)c1c(C)n(Cc2ccccc2)c2ccc(OCC(O)Cn3nc(C)nc3C)cc12 (stereo not drawn)
    nt	nt	nt	1.1%	?
(27) C[C@@]12Cc3cnc(-c4ccccc4)nc3C[C@@H]1CC[C@@H]1[C@H]3CC[C@@](C)(O)[C@]3(C)CC[C@@H]12
    1.2e-09	i	i	-1.0%[11.5 µM]	-1%[11.4 µM]
(28) CC(C)NC(C)C
    nt	nt	nt	2.5%	3%
(29) O=S(=O)(Nc1nccs1)c1ccc([As](=O)(O)O)cc1
    1.3e-08	i	i	-0.3%[11.5 µM]	15%[11.4 µM]
(30) O=C(Cn1ncc2ccccc21)N1CCC2(CC1)OCCO2
    2.6e-08	i	i	0.0%	nt
(31) Cc1ccc(C2(c3ccc(C)c(O)c3C)CCN(C)CC2)c(C)c1O
    1e-09	i	i	-0.6%[11.5 µM]	-1%[11.4 µM]
(32) O=C1CS[C@@H](c2ccccc2Cl)c2cc(Cl)ccc2N1
    nt	nt	nt	11%	?
(33) O=[As](O)(O)c1ccc(NCc2ccccc2)cc1
    5.7e-08	i	i	-0.2%[11.5 µM]	0%[11.4 µM]
(34) Cc1nnc(SCc2nc3ccccc3c(=O)n2-c2ccccc2Cl)n1N
    1.5e-09	i	i	0.2%	-5%
(35) c1ccc(N2CCC3(CCNCC3)CC2)cc1
    1.4e-09	i	i	2.4%	-9%
(36) COc1cc(CCN)ccc1O
    3.1e-08	i	i	0.5%	nt
(37) CCN1C(=O)/C(=C2\C=Cc3ccccc3N2CC)OC1=S
    1.1e-08	3.8e-08M*	2.2e-08M*	4.1%	?
(38) C[C@@]12CC[C@H]3[C@@H](CC[C@@H]4C[C@H]5S[C@H]5C[C@]43C)[C@H]1CC[C@H]2O
    1e-09	i	i	0.2%[25.7 µM]	2%[25.6 µM]
(39) C=C[C@@H]1CN2CC[C@H]1C[C@H]2[C@@H](O)c1ccnc2ccccc12
    1e-09	i	i	nt	?
(40) COC(=O)[C@H]1C(=O)c2ccccc2O[C@@](C(=O)OC)(c2ccccc2)[C@@H]1c1ccccc1
    nt	nt	nt	-5.0%[11.5 µM]	6%[11.4 µM]
(41) O=C(NC1CC1)C1CSC(c2cccnc2)=N1 (stereo not drawn)
    1e-09	i	i	-1.1%	-4%
(42) CN(C)[C@@H]1C(=O)C(C(N)=O)=C(O)[C@]2(O)C(=O)C3=C(O)c4c(O)cccc4[C@@](C)(O)[C@H]3[C@H](O)[C@@H]12
    3.1e-08	i	i	-2.6%[25.7 µM]	-22%[25.6 µM]
(43) CN1CCN(C(=O)Cc2nc3ccccc3[nH]2)CC1
    4.2e-09	i	i	7.0%	?
(44) Cc1cscn1
    nt	nt	nt	3.5%	?
(45) O=C(Cc1ccccc1)Oc1ccccc1N1C(=O)CCC1=O
    1e-09	i	i	0.5%	0%
(46) Oc1ccc2c3c1O[C@H]1[C@@H](O)CC[C@]4(O)[C@H](C2)N(CC2CCC2)CC[C@@]314
    2.1e-08	i	i	-4.2%[25.7 µM]	-7%[25.6 µM]
(47) ClC(Cl)=C(Cl)Cl
    nt	nt	nt	-1.8%&-1.7%	?
(48) C=CCN1C[C@H](C)N([C@H](c2ccc(C(=O)N(CC)CC)cc2)c2cccc(O)c2)C[C@H]1C
    nt	nt	nt	-3.0%	25%
(49) CN1CCC(N(C)c2nc(-c3ccccc3)nc3ccccc23)CC1
    2.7e-08	i	i	0.5%	-53%[inhibitor]
(50) CC(C)n1cc(C(=O)N(CC(=O)NC2CCCC2)Cc2ccccc2)cn1
    5.8e-08	i	i	-0.2%	7%
(51) O=C(Cc1ccccc1)OCn1nnc2ccccc2c1=O
    1e-09	i	i	-0.6%	7%
(52) Cc1cnc[nH]1
    nt	nt	nt	-1.9%	-2%
(53) c1ccc2oc(N3CCNCC3)nc2c1
    1e-09	i	i	-0.4%	-3%
(54) O=C(c1cc(-c2cccnc2)nc2ccc(Cl)cc12)N1CCC2(CC1)OCCO2
    1e-09	i	i	0.1%	14%
(55) C[C@@]12CC[C@H](O)C[C@@H]1CC[C@H]1[C@H]2C[C@@H](O)[C@]2(C)[C@@H](C3=CC(=O)OC3)CC[C@@]12O
    1e-09	i	i	nt	12%
(56) O=C(C1CC(=O)N(C2CCCCC2)C1)N1CCC2(CC1)OCCO2 (stereo not drawn)
    4.5e-08	i	i	0.6%	-2%
(57) CCCCP(=O)(O)c1ccccc1
    nt	nt	nt	-0.2%	-3%
(58) CN1[C@@H]2CC[C@H]1CC(OC(c1ccc(F)cc1)c1ccc(F)cc1)C2 (stereo partly drawn)
    nt	nt	nt	3.9%	?
(59) CCOC(=O)c1c(C)n(Cc2ccccc2)c2ccc(OCC(O)CN3C(=O)CNC3=O)cc12 (stereo not drawn)
    5.6e-09	i	i	-1.6%	nt
(60) C=CCn1c(O)c(C(CC)=NCCCO)c(=O)[nH]c1=O
    1.7e-09	i	i	0.2%	5%

(cont.)
Values in the order: A647 autofl	A488 autofl	Resorufin autofl	AID923	TSHR agonist
(61) CN1CC[C@@]2(CCCN(C(=O)c3ccncc3)C2)C1
    1.9e-08	i	i	0.9%	-1%
(62) O=c1c2ccccc2nc(CN2CCCCCC2)n1-c1ccc(F)cc1
    3.4e-08	i	i	0.2%	21%
(63) CCN1C[C@@]2(C)CC[C@H](O)[C@@]34[C@@H]5C[C@H]6[C@H](O)[C@@H]5[C@](O)(C[C@@H]6OC)[C@H](C[C@@H]23)[C@H]14
    1.3e-09	i	i	nt	1%
(64) CC(C)CNCCc1ccccn1
    4.6e-08	i	i	2.4%[11.5 µM]	1%[11.4 µM]
(65) CC(C)CN1CCCC2(CCN(C(=O)Oc3ccccc3)CC2)C1
    2.5e-09	i	i	-0.7%	4%
(66) CCCC(C)n1[nH]c(=O)c2c1NC(=O)CSC2c1ccc(OC)c(OC)c1 (stereo not drawn)
    2.8e-08	i	i	-0.8%	-4%
(67) CC1=CC(=O)C2=C(C)CC(O)C3C(C)C(=O)OC3C12 (stereo not drawn)
    1e-09	i	i	0.3%	-4%
(68) Cc1cccnc1-n1c(CN2C(=O)c3ccccc3C2=O)nc2ccccc2c1=O
    2.3e-08	i	i	0.9%	37%
(69) O=C(Nc1cccnc1)c1c(O)c2c(n(Cc3ccccc3)c1=O)CCCC2
    1e-09	i	i	-0.8%	?
(70) COc1cccc(OC)c1C1=NCC(=O)Nc2c1oc1ccc(Br)cc21
    nt	nt	nt	-3.2%	23%
(71) CCCCn1c(O)c(C(CC)=Nc2ccc(OCC)cc2)c(=O)[nH]c1=O
    1e-09	i	i	1.9%	?
(72) O=C1C2CCCN2C(c2cccnc2)N1c1cccc(Cl)c1 (stereo not drawn)
    nt	nt	nt	-2.8%	-1%
(73) NCC[Se][Se]CCN
    1e-09	i	i	-3.0%[11.5 µM]	6%[11.4 µM]
(74) CN(C)C(=O)Oc1ccc(OC(=O)N(C)C)cc1
    nt	nt	nt	-0.1%	-9%
(75) Cc1cccc(NC(=O)CSc2nnc([C@@H](N)Cc3c[nH]c4ccccc34)o2)c1C
    6.2e-09	i	i	2.0%	0%
(76) CC(=O)Nc1ccccc1OC(=O)N(C)C
    6.2e-08	i	i	2.3%	2%
(77) COC(=O)c1cn(CCOc2ccccc2)c2ccccc12
    1.7e-09	i	i	-4.0%	?

In the list so far, 2 contain bromine:
Values in the order: A647 autofl	A488 autofl	Resorufin autofl	AID923	TSHR agonist
(7) CCNC(C)(C)[C@@H](SS)c1ccc(Br)cc1
    1e-09	i	i	1.2%[11.5 µM]	-1%[11.4 µM]
(70) COc1cccc(OC)c1C1=NCC(=O)Nc2c1oc1ccc(Br)cc21
    nt	nt	nt	-3.2%	23%

Screening data deposited in PubChem BioAssay by National Center for Advancing Translational Sciences (NCATS).
